# Ecoli rRNA inh – reduced GFP signal of wild-type E. coli, primary screen, bacterial rRNA inhibitor project, GFP/RFP fluorescence, OD600, single point. E. coli WT GFP vs humanized-ribosome RFP mutants, 24 h; stronger effect = lower value; DMSO median 0, no signal -100. GFP signal change (wild-type ribosome), % (test concentration not listed). 350,000 compounds, 1.6% hits;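 active = significant combined selectivity score with lowered wild-type GFP, culture density cut under 30%, mutant RFP and density less affected; inactive = any of these conditions unmet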; also: one replicate is shown; some compounds called inactive have numbers as strong as hits
# FGF22 binding – binders of human FGF22 protein, primary screen, FGF22 synaptogenesis inhibitor project, biophysical, thermal shift, single point; Fibroblast growth factor 22 (Homo sapiens), Q9HCT0; recombinant FGF22 thermal shift, SYPRO orange fluorescence; percent of sucrose octasulfate shift, DMSO zero; calls only at 9.99 µM; 340,000 compounds, 1.5% hits;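 active = melting point raised past a set limit in the mean and every replicate; inconclusive = no clear call; three in four hits are not shown here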
# AF4-AF9 inh – inhibitors of AF4 peptide binding to AF9, primary screen, biochemical, AlphaScreen, biotin-AF4 peptide, FLAG-AF9, single point; inhibition, % at 10 µM; Protein AF-9 (Homo sapiens), P42568; 350,000 compounds, 0.47% hits;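 active = every replicate reaching a set inhibition limit, whatever the replicate mean, cut at about 25% in these data; inconclusive = mean inhibition reaches that limit but some replicates miss it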;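 also: 0% = plate neutral control median and 100% = total signal loss; the record names both 10 and 1 µM as test concentration; the first replicate is given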
# Target sequence (P42568 whole entry, looked up): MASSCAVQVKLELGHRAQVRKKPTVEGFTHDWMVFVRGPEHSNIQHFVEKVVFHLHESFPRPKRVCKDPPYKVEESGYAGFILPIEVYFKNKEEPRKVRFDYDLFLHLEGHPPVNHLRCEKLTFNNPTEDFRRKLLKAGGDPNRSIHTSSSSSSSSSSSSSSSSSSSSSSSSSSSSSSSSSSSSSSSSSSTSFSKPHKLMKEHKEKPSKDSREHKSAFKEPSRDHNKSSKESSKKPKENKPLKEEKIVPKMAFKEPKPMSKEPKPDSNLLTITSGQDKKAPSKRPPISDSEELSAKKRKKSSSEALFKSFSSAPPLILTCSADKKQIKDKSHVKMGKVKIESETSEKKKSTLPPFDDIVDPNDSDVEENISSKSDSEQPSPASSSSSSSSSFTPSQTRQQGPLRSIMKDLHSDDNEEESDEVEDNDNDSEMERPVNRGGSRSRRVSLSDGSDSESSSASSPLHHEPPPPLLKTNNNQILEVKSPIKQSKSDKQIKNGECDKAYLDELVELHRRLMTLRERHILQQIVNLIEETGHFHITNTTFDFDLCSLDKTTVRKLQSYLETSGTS
# Ecoli rRNA inh OD600 – second read-out of Ecoli rRNA inh, no call of its own (marks repeat the call); OD600 change, %; measured here: OD600 growth;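 optical density of the mix in the first replicate; 0 = DMSO median and -100 = no signal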
# Ecoli rRNA inh RFP – further read-out of Ecoli rRNA inh, marked with its call; RFP signal change, %; measured here: RFP humanized mutant strains;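 first replicate; 0 = DMSO median and -100 = no signal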
# Numbers without * were called inactive; i = inactive; u = inconclusive. Not all compounds are listed; rates above refer to the full screens.
# Each structure is followed by: Ecoli rRNA inh | Ecoli rRNA inh OD600 | Ecoli rRNA inh RFP | FGF22 binding | AF4-AF9 inh
> COCC(=O)Nc1ccc2c(c1)[C@@H]1C[C@H](CC(=O)NCCN3CCCCC3)O[C@@H](CO)[C@@H]1O2
→ 2 | 11 | -2.3 | i | -6.6
> C[C@@H](NC(=O)C[C@@H]1CC[C@H]2[C@@H](COC[C@@H](O)CN2C(=O)Nc2cc(Cl)cc(Cl)c2)O1)c1ccccc1
→ -38 | -66 | 16 | i | -0.2
> CC(C)(C)[S@](=O)N1Cc2cc(C(=O)NCCc3ccncc3)nc(-c3cccc(-c4cccnc4)c3)c2[C@@H]1CCO
→ -3 | 2 | 1.7 | i | 0.4
> O=C1NC(Cc2ccc(O)cc2)c2nc3ccc(Br)cc3c(=O)n2-c2ncccc21 (centres undefined)
→ -21* | -3.1* | -0.7* | i | 6.4
> C[C@H]1CN([C@@H](C)CO)C(=O)Cc2cc(NC(=O)CCCCCC(=O)Nc3ccccc3N)ccc2O[C@H]1CN(C)C
→ 0 | 4 | 2.9 | i | 1.7
> C/C=C/c1cnc2c(c1)C(=O)N([C@@H](C)CO)C[C@@H](C)[C@@H](CN(C)C(=O)Nc1ccc(C(F)(F)F)cc1)O2
→ -1 | -6 | 12 | i | 1.3
> COc1cc(-c2nnc(NC(=O)CS(=O)(=O)c3ccc(Cl)cc3)o2)cc(OC)c1OC
→ -4 | -9 | -0.2 | i | -1.0
> COCC#Cc1cnc2c(c1)C(=O)N([C@@H](C)CO)C[C@H](C)[C@@H](CN(C)Cc1ccc(-c3ccccc3)cc1)O2
→ 0 | -8 | 8.3 | i | 17
> C[C@H]1CCCCO[C@H](CN(C)C(=O)Cc2ccccc2)[C@@H](C)CN([C@@H](C)CO)C(=O)c2cc(NS(=O)(=O)c3cccs3)ccc2O1
→ -3 | -15 | 3.4 | i | -0.4
> C[C@@H]1CN([C@H](C)CO)C(=O)Cc2cc(NC(=O)Nc3cccc4ccccc34)ccc2O[C@H]1CN(C)Cc1ccc(C(=O)Nc2ccccc2N)cc1
→ -4 | -10 | -0.2 | i | -4.6
> CCCNC(=O)C[C@H]1CC[C@@H]2[C@H](COc3ccc(NC(=O)c4cscn4)cc3C(=O)N2C)O1
→ 1 | -4 | -1.6 | i | 0.3
> C[C@H](CO)N1C[C@H](C)[C@H](CN(C)S(=O)(=O)c2cccs2)Oc2ccc(NC(=O)Cc3cn(C)c4ccccc34)cc2C1=O
→ 0 | -7 | 0.3 | i | -2.4
> C/C=C/c1ccc([C@@H]2[C@@H](CN(C)C(=O)CC)N(C(=O)NC(C)C)[C@H]2CO)cc1
→ -5 | 7 | 1.6 | i | -3.3
> CC1(C(=O)NS(=O)(=O)c2ccc(F)cc2F)CCN1C(=O)Cc1cccc2ccccc12 (centres undefined)
→ 21 | 11 | 6.7 | i | -3.0
> Cc1noc(C)c1S(=O)(=O)Nc1ccc2c(c1)C(=O)N([C@H](C)CO)C[C@@H](C)[C@H](CN(C)S(=O)(=O)c1c(C)noc1C)OCCCC[C@@H](C)O2
→ 4 | 4 | 1.7 | i | 2.4
> CC(C)OC(=O)N(C)C[C@H]1OCc2cn(nn2)CCCC(=O)N([C@H](C)CO)C[C@H]1C
→ 0 | 5 | 0.1 | i | 0.1
> COc1ncnc2c1ncn2CCCNCCN1CCOCC1
→ 5 | 10 | -5.2 | i | -0.9
> Cc1noc(C)c1S(=O)(=O)NC(=O)C1(C)CCN1C(=O)c1ccccc1CCc1ccccc1 (centres undefined)
→ 4 | 1 | 0.7 | i | -3.3
> O=C1CCCn2cc(nn2)COCC2CCCN12 (centres undefined)
→ 5 | 11 | 1.8 | i | -2.6
> Cc1noc(C)c1S(=O)(=O)N(C)C[C@H]1Oc2ccc(NC(=O)NC3CCCCC3)cc2CC(=O)N([C@H](C)CO)C[C@@H]1C
→ 1 | -2 | 0.7 | i | 0.4
> CNC[C@@H]1Oc2c(NC(=O)c3nc4ccccc4s3)cccc2C(=O)N([C@@H](C)CO)C[C@H]1C
→ 0 | -3 | 0.5 | i | -2.9
> NNC(=O)c1nc2ccccc2s1
→ 0 | 4 | 1.3 | i | -6.1
> COc1ccc(S(=O)(=O)Nc2ccc3c(c2)C(=O)N([C@@H](C)CO)C[C@H](C)[C@@H](CN(C)CC2CC2)OCCCC[C@H](C)O3)cc1
→ 0 | -2 | 0.6 | i | 4.1
> Cc1ccc(F)cc1-c1nc(NC(C)C)nc2cc(-c3ccccc3)sc12
→ -13 | -40 | 17 | i | 1.9
> CO[C@H]1CN(C)C(=O)c2cc(NC(C)=O)ccc2OC[C@H](C)N(C(=O)Cc2ccccn2)C[C@H]1C
→ 5 | 5 | -0.1 | i | u
> COC(=O)[C@]12C[C@H](CC(=O)NCCCCc3ccccc3)C(=O)N(Cc3ccccc3)C1=C[C@H](C1CCCC1)O[C@@H]2C
→ 0 | -4 | 2.9 | i | -1.0
> COc1ccc(NC(=O)N[C@H]2CC[C@@H](CCNS(=O)(=O)c3ccccc3F)O[C@@H]2CO)cc1
→ -5 | -3 | 1.3 | i | 2.4
> O=C(N[C@@H]1CC[C@@H](CCn2cc(C3(O)CCCC3)nn2)O[C@H]1CO)C1CCOCC1
→ 2 | 11 | -2.0 | i | -0.6
> CC(=O)c1cccc(-c2ccnc3c2CC(C(=O)Nc2ccc(F)c(Cl)c2)O3)c1 (centres undefined)
→ -21 | -43 | 5.3 | i | -1.1
> COc1ccccc1CNC(=O)C[C@@H]1C=C[C@@H](NC(C)=O)[C@@H](CO)O1
→ 5 | 9 | 1.0 | i | -0.3
> C[C@@H]1CN([C@H](C)CO)C(=O)c2cccc(NC(=O)c3cnccn3)c2O[C@@H]1CN(C)S(C)(=O)=O
→ 0 | 5 | -1.3 | i | -2.8
> CO[C@@H]1CN(C)C(=O)c2cc(NC(C)=O)ccc2OC[C@H](C)N(C(=O)c2cccnc2)C[C@H]1C
→ 2 | 10 | -0.8 | i | -1.7
> Cc1ccc(S(=O)(=O)Nc2ccc3c(c2)CC(=O)N([C@H](C)CO)C[C@H](C)[C@H](CN(C)C(=O)NC2CCCCC2)O3)cc1
→ -1 | 0 | -2.3 | i | 2.0
> CCC(=O)N1CC[C@@H]2[C@H](CO)Nc3ccc(C#Cc4ccccc4)cc3[C@@H]21
→ -3 | -4 | 2.1 | i | 1.7
> O=C(C[C@@H]1C=C[C@@H](NC(=O)C2CCC2)[C@H](CO)O1)NCC1CC1
→ 3 | 2 | -0.9 | i | -1.8
> CN(C)C(=O)[C@H]1[C@H](CO)[C@H]2Cn3c(ccc(-c4ccccc4F)c3=O)[C@H]2N1C(=O)c1cnccn1
→ 2 | 1 | -1.3 | i | -1.7

# Source: PubChem BioAssay (Broad Institute)
